Vaccinia Venus: vaccinia inhibition (Venus reporter); Potency, µM (top dose mostly 36.5 µM), for the others: at the top dose activity change, negative = inhibition, hits mostly inhibitors; 0.46% of 330,000 active; Vaccinia virus Venus reporter expression, fluorescence; active means well fitted inhibition curve with a large enough effect; inconclusive means small, poorly fitted or top-dose-only effect; inactive means no such curve, though single readings can be large or run the other way; tested in A549 cells; also: nearly all actives have a fitted effect of over 30% in size; inactives centre near -10
VACV mCherry inh: vaccinia inhibition (mCherry reporter); Vaccinia virus mCherry reporter infection, fluorescence; about a quarter of the inactives have no number; Potency, µM (highest dose often 36.5 µM), without a hit: at the highest dose activity change, negative = inhibition, usual class: inhibitors; 0.63% of 310,000 active; AID 720579; active = well fitted inhibition curve with a large enough effect; inconclusive = small, poorly fitted or top-dose-only effect; inactive = no such curve, though single readings can be large or run the other way; tested in A549 cells; also: nearly all actives have a fitted effect of over 35% in size; inactives centre near -10
* = called active by the depositor; i = inactive; ? = inconclusive; · = not tested or not shown; & = joins results of further samples; [ ] = remark or other dose. % is scaled to controls: 0 for no effect and ±100 for the full control effect; potency is read from the fitted curve at half-maximal effect.

Each structure is followed by: Vaccinia Venus | VACV mCherry inh
- CC(C)CCNC(=O)c1ccc2c(c1)N(Cc1ccccc1F)C(=O)c1ccccc1S2(=O)=O
    -15% | -7%
- CCCN1C(=O)c2cccc3c(N4CCCCC4)ccc(c23)C1=O
    11% | -5%
- COc1cc(CNn2c(C)n[nH]c2=S)cc(Cl)c1OCc1ccc(F)cc1
    -1% | i
- Cc1cccc(C)c1NC(=O)C1CCCN(CCCc2ccccc2)C1 (stereo unspecified)
    -10% | i
- CC[C@]12c3[nH]c4ccc(Cl)cc4c3CCN1C(=O)[C@@H](CC(=O)NCC13CC4CC(CC(C4)C1)C3)C[C@@H]2C(=O)N1CCN(C(=O)c2ccco2)CC1
    14µM* | 11µM*
- CCc1ccc(NC(=O)CSc2nc(=O)n(Cc3cccnc3)c3c2CCC3)cc1
    -11% | -28%
- Cc1[nH]c(=O)c(C(=O)/C=C/c2ccccc2)c2c1CCCC2
    6.3µM* | 3.2µM*
- N#CCCCc1cc2cc(F)ccc2cn1
    -13% | i
- COc1ccccc1NC(=O)Cn1c(=O)n(-c2ccc(C)cc2)c(=O)c2c1cnn2C
    0% | 2%
- CCc1cccc(CC)c1N(COC)C(=O)Cn1c(C(C)O)nc2ccccc21 (stereo unspecified)
    -2% | -7%
- NC(=O)c1cc([N+](=O)[O-])ccc1Nc1ccccc1
    -29% | -28%
- Cn1c(SCC(=O)NCc2ccco2)nnc1-c1ccccc1
    -9%&-9% | -9%
- Cc1cccc(Cn2cccc2CNS(=O)(=O)c2ccc(C)c(C)c2)c1
    -15% | i
- COc1ccc(C(=O)Nc2ccc(Cl)c(Cl)c2)c(OC)n1
    2% | ·
- O=C(c1ccccn1)N1N=C2/C(=C/c3ccc(F)cc3)CCCC2C1c1ccc(F)cc1 (stereo unspecified)
    -11% | i
- C/C(=N\NC(=O)c1cc(-c2ccc(C)s2)[nH]n1)c1ccncc1
    -1% | -18%
- CC(C)C1Oc2ccccc2N(CC(=O)N2CCOCC2)C1=O (stereo unspecified)
    0% | 12%
- CCOC(=O)C1=C(CP(=O)(c2ccccc2)c2ccccc2)NC(=O)NC1c1ccc(Cl)cc1 (stereo unspecified)
    -26% | i
- O=C(COc1ncnc2cc([N+](=O)[O-])ccc12)NCc1ccc2c(c1)OCO2
    -10% | ·
- Cc1cccc(N2CCN(C(=O)c3cccs3)CC2)c1C
    -9% | i
- COc1ccc(NC(=O)Cn2nnc(-c3ccccc3F)n2)cc1
    -15% | ·
- COC(=O)C1=C(C(=O)c2ccc(C)cc2)C(c2ccc(O)c(OC)c2)n2nnnc2N1 (stereo unspecified)
    -20% | ·
- CCN(C(=O)COC(=O)c1cccc(-n2cnnn2)c1)C1CCCCC1
    -20% | -19%
- O=C(c1ccccc1)c1ccc2ccccc2c1
    1% | i
- Cc1nn(Cc2ccc(C(=O)NC3CCCCC3)o2)c(C)c1Br
    -22% | i
- CCN1C(=O)[C@H]2[C@@H](c3ccc(C(F)(F)F)cc3)N[C@]3(CCCN(Cc4ccc(Cl)cc4)C3=O)[C@H]2C1=O
    -29% | -16%
- CN(c1ccccc1)S(=O)(=O)c1cc(C(=O)N2CCN(c3ccccn3)CC2)ccc1Cl
    -21% | ·
- CC(C)=NNc1cc([N+](=O)[O-])cc2c1C(=O)N(C)S2=O (stereo unspecified)
    -2% | i
- COc1cc(NC(=O)c2cccc(C)c2)c(OC)cc1NC(=O)CN1CCCCC1
    -14% | ?
- CC(=O)Nc1sc2c(c1CN1CCN(c3ccccn3)CC1)CCCC2
    -21% | -17%
- CCOC(=O)Cc1ncccc1C(=O)Nc1ccc(OC)cc1
    -4% | 4%
- Cc1ccc(C(=O)N2N=C(c3ccccc3O)CC2c2ccccc2)cc1 (stereo unspecified)
    -1% | i
- O=C(NNc1nc2ccccc2s1)Nc1ccccc1
    -4% | -2%
- Cc1ccc(C(=O)c2c3ccccc3[n+]([O-])n2CCC(=O)O)cc1
    -13% | i
- Cc1ccccc1NC(=O)Cc1nc(COC(=O)c2ccc(O)cc2O)cs1
    -25% | -27%
- C=CCn1c(C)cc(C(=O)CN2C(=O)NC3(CCCc4ccccc43)C2=O)c1C (stereo unspecified)
    -14% | 0%
- COc1cc2c(cc1OC)[C@@H](NC(=O)c1ccc(C(F)(F)F)cc1)[C@H](OCc1ccccc1)C2
    ? | -4%
- Cc1ccc(NC(=O)C2(S(=O)(=O)c3ccc(Cl)cc3)CC2)c(Br)c1
    -2% | ?
- Cn1c(=O)c2c(nc(Oc3ccccc3Cl)n2Cc2ccc(C#N)cc2)n(C)c1=O
    -9% | -4%
- CCN(CC)S(=O)(=O)c1ccc(-n2c(=O)c(C(C)C)c(C)n2C)cc1
    -13% | -7%
- Cc1cccc(Cn2c(=O)n(-c3ccc(Cl)c(Cl)c3)c(=O)c3c(C)c(C)sc32)c1
    -11% | -8%
- Cn1nc(C(F)(F)F)cc1C(=O)Nc1ccc(Cl)cc1
    -5% | i
- CCOC(=O)C1CCCN(Cc2ccc3c(c2)OCO3)C1 (stereo unspecified)
    -5% | -9%
- CCSc1nnc(NC(=O)CSc2nnc(Cc3cccn3C)n2-c2ccc(C)cc2)s1
    -1% | i
- Nc1ccc(C2(c3ccc(N)cc3)CN3CCC2CC3)cc1
    -7% | -14%
- O=C(NCc1ccccc1)C(c1cc2ccccc2o1)n1c(=O)c(-c2ccco2)nc2ccccc21 (stereo unspecified)
    -5% | i
- CC1=C(C(=O)Nc2ccc(C)cc2C)C(c2ccc(C(C)C)cc2)n2nc(C(F)(F)F)nc2N1 (stereo unspecified)
    -9%[7.34 µM] | -26%[7.34 µM]
- O=C(NNc1c2ccccc2nc2ccccc12)c1ccc(Cl)cc1
    -6% | i
- O=C(NC1CCCCC1)C(c1ccc(-c2ccccc2)cc1)n1c(=O)c(-c2ccco2)nc2ccccc21 (stereo unspecified)
    -12% | -14%
- O=C(NCCCN1CCOCC1)c1cn(-c2ccccc2)nc1-c1ccc(Br)cc1
    ? | -25%

Next section:
Each structure is followed by: Vaccinia Venus | VACV mCherry inh
- CCOc1ccccc1CNC(=O)C1CCN(S(=O)(=O)c2cccc3nonc23)CC1
    -1% | 3%
- Cc1ccc(CC2S/C(=N/N=C/c3ccco3)NC2=O)cc1 (stereo unspecified)
    -5% | 3%
- Cc1cc(Br)c(NC(=O)COC(=O)C2CC2C)c(Br)c1 (stereo unspecified)
    -18% | -23%
- COC(=O)C(C)n1cnc2c(nnn2-c2cccc(Cl)c2)c1=O (stereo unspecified)
    -5% | -14%
- CCOc1ccccc1N(C)C(=O)C1CCCN(c2ncnc3onc(-c4ccc(F)cc4)c23)C1 (stereo unspecified)
    -18% | -11%
- O=C(O)CC1Sc2ccccc2NC1=O (stereo unspecified)
    ? | ·
- CCOC(=O)Cc1csc(NC(=O)c2cc3ccccc3o2)n1
    2% | i
- COc1ccc(C(=O)Nc2cccc(-c3nc4cccnc4s3)c2C)c(OC)c1
    -8% | -16%
- CCCCn1nc2cc(C(=O)NCC34CC5CC(CC(C5)C3)C4)ccc2c1OC
    ? | 6.3µM*
- Cc1ccc(S(=O)(=O)N(C)C)cc1NC(=O)COC(=O)c1c(-c2ccccc2)noc1C
    -22% | -26%
- CCC(=O)c1c[nH]c(C(=O)NCc2cccnc2)c1
    -4% | -11%
- O=C1CCC/C=C\C[C@H](CC(=O)N(CCO)Cc2ccccc2)C(=O)N2CCC[C@@H]2CO1
    -5% | i
- COc1ccc(C(=O)O/N=C(/c2ccccc2)c2ccncc2)cc1OC
    -5% | -8%
- COc1cccc(/C=C(\C(=O)O)c2ccccc2)c1
    -2% | -1%
- Cc1ccc(S(=O)(=O)N(Cc2ccc(F)cc2)Cc2ccco2)cc1
    6% | ·
- CN(C)CC(C)(C)CNS(=O)(=O)c1ccc(OC(F)(F)F)cc1
    -13% | -4%
- COc1ccc(C2=C(N3CCN(c4cc(C)ccc4C)CC3)c3ccccc3C2=O)cc1
    -12% | -16%
- CCOc1ccc(N2C(=O)CC(N3CCN(c4ccc(C(=O)c5ccncc5)cc4)CC3)C2=O)cc1 (stereo unspecified)
    -17% | -14%
- O=C(CSc1nc(NS(=O)(=O)c2ccccc2)cc(=O)[nH]1)Nc1ccccc1C(F)(F)F
    0% | -12%
- O=C(C[n+]1cccc(Cl)c1)c1ccc(F)cc1
    -9% | 17%
- COc1ccc(NC(=O)c2cccc3c(=O)c4c([nH]c23)CCCC4)cc1
    -10% | -10%
- O=C(c1cccc(Cl)c1)N1CCCC(c2ccc(Cl)cc2)=N1
    -16% | -18%
- O=C(CCCn1nnc(-c2cccnc2)n1)c1ccc(F)cc1
    -7% | i
- Cc1nn(-c2ccccc2)c2c1N(CC(=O)NCc1ccc(N(C)C)cc1)C(=O)CS2
    1% | -8%
- NCC(=O)NCC(=O)NC[C@H]1O[C@@H](n2ccc(=O)[nH]c2=O)[C@H](O)[C@@H]1O
    -4% | -12%
- CCOc1ccc(CNC(=O)c2cc(-c3ccc(Cl)s3)nc3ccccc23)cc1
    -25% | ?
- Cc1ccccc1Nc1nc2ccccc2s1
    -22% | -5%
- Cc1cccc(OCC(=O)Nc2ccccc2OCc2cc(=O)n3ccccc3n2)c1
    -2% | i
- CN(C)CCN(CC1CCCN(Cc2ccccc2F)C1)C(=O)c1ccc(Cl)cc1 (stereo unspecified)
    -9% | ?
- Cc1cnc(-n2ncc(C(=O)N(C)CC3CCCN(C)C3)c2C2CC2)nc1-c1cccs1 (stereo unspecified)
    -12% | -20%
- Fc1ccc(N2CCN(C(=S)NCC3CCCO3)CC2)cc1 (stereo unspecified)
    -3% | -9%
- Cc1ccc(/C=C2\C(=O)NC(=O)N2C)o1
    -5% | i
- CN(c1ccccc1)S(=O)(=O)c1ccc(NC(=O)c2ccc(-c3ccccc3)cc2)cc1
    ? | -25%
- Cc1ccc(S(=O)(=O)Cc2ccc(C(=O)N3CCCCC3C)cc2)cc1 (stereo unspecified)
    -5% | i
- Cc1cc2c(cc1C)NC(c1cccnc1)C1=C(CC(C)(C)CC1=O)N2 (stereo unspecified)
    -1% | ·
- N#Cc1ccc(OCC(O)CN2CCN(CC(O)COc3ccc(C#N)cc3)CC2)cc1 (stereo unspecified)
    -6% | -3%
- CCOC(=O)CNC(=O)/C=C/c1ccc2c(c1)OCO2
    -1% | -10%
- CSc1ncccc1C(=O)OCc1cccc([N+](=O)[O-])c1
    -16% | -25%
- CC(=O)c1cccc(NC(=O)C(NC(C)C)c2ccccc2)c1 (stereo unspecified)
    3% | -11%
- CC1=NN(C(=O)Cc2ccccc2)C(O)(c2cccnc2)C1 (stereo unspecified)
    -8% | -13%

The closing 6 records of the section above come first, to join the parts:
Each structure is followed by: Vaccinia Venus | VACV mCherry inh
- Cc1cc2c(cc1C)NC(c1cccnc1)C1=C(CC(C)(C)CC1=O)N2 (stereo unspecified)
    -1% | ·
- N#Cc1ccc(OCC(O)CN2CCN(CC(O)COc3ccc(C#N)cc3)CC2)cc1 (stereo unspecified)
    -6% | -3%
- CCOC(=O)CNC(=O)/C=C/c1ccc2c(c1)OCO2
    -1% | -10%
- CSc1ncccc1C(=O)OCc1cccc([N+](=O)[O-])c1
    -16% | -25%
- CC(=O)c1cccc(NC(=O)C(NC(C)C)c2ccccc2)c1 (stereo unspecified)
    3% | -11%
- CC1=NN(C(=O)Cc2ccccc2)C(O)(c2cccnc2)C1 (stereo unspecified)
    -8% | -13%
- COCCNC(=O)C1(C)CCN(C(=O)c2cc(-c3ccccc3)cs2)C1 (stereo unspecified)
    2% | 47%[activator]
- Cc1ccc(Nc2oc(C)nc2C#N)cc1
    -10% | -15%
- O=C(CCS(=O)(=O)c1ccccc1)Nc1cccc2c1C(=O)NC2=O
    5% | i
- FC(F)(F)c1ccccc1-n1c(-c2ccco2)n[nH]c1=S
    -14% | -3%
- O=c1[nH]c2ccccc2n2c(C(F)(F)F)nnc12
    8% | -1%
- CC(=O)N1CCN(c2ccc(NC(=O)c3ccc([N+](=O)[O-])cc3Cl)cc2)CC1
    -12% | -29%
- C=CCSc1nnc(-c2cc3c(s2)-c2ccccc2CC3)o1
    ? | ·
- CN(c1ccccc1)c1cc(=O)[nH]c(=O)[nH]1
    -10% | -5%
- Cc1ccc(NC(=O)CSc2nncn2-c2ccccn2)cc1Cl
    8% | -11%
- COc1ccc(C(=O)NNc2ncnc3c2cnn3-c2ccc(C)cc2C)cc1
    -9% | i
- O=S1(=O)CC(N2CC=CC2)CN1Cc1ccccc1 (stereo unspecified)
    -6% | 12%
- CCc1ccc2oc(-c3ccc(NC(=O)c4cc(OC)c(OC)c(OC)c4)cc3)nc2c1
    -2% | -14%
- CCOC(=O)CC1C(=O)NCCN1Cc1ccc(OC)c(OC)c1 (stereo unspecified)
    -1% | -13%
- CC(=O)c1ccc(NC(=O)CCCSc2nc(-c3ccco3)cc(C(F)(F)F)n2)cc1
    -18% | -23%
- CCNc1nc(NCc2ccc(F)cc2)c2cnn(C)c2n1
    -12% | -22%
- COC(=O)c1cc2sc(C)cc2n1Cc1nc(-c2cccc(Br)c2)oc1C
    -12% | -8%
- CCN1C(=O)c2ccccc2Sc2ccc(NC(=O)N3CCN(c4cc(C)ccc4C)CC3)cc21
    -22% | -27%
- CC(=O)Nc1ccc(C(=O)COC(=O)Cc2ccsc2)c(F)c1
    -7% | -14%
- COc1ccccc1N1CCN(C(=O)c2cc(-c3ccccc3)nc3c2cnn3C(C)C)CC1
    -16% | -10%
- C=CCN(c1ccc(C(=O)Nc2ccc(C)c(C)c2)cc1)S(C)(=O)=O
    -27% | -27%
- Cc1cc(C)cc(N(CCC#N)C(=O)COC(=O)CN2C(=O)NC(C)(C)C2=O)c1
    -1% | i
